CapD inh: Bacillus anthracis CapD inhibitors, primary screen, biochemical, fluorescence intensity; purified CapD enzyme, fluorescence intensity read-out; stronger effect = lower value; some hits fall short of the stated cut; z-score (concentration not given with the values); actives 0.23% (n = 140,000); AID 492967, 2010;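 active means z-score under -4 in either of two replicates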;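 further: stock transfer was 100 nL into about 40 µL; score is relative to mean and spread of the plate; one replicate is shown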
AID504770: growth inhibition of E. coli YBA685, primary screen, V. cholerae RctB inhibitors | E. coli YBA685 rctB-dependent plasmid, OD600 growth, 3 h; stronger effect = lower value | z-score (concentration not given with the values) | actives 0.27% (n = 130,000) | AID 504770, 2011;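 active means z-score under -2 on both plates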;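 further: wells of about 30 µL received 100 nL stock; score is relative to mean and SD of the test wells; the first replicate is given; strong numbers were not always called active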
* = called active by the depositor; . = no result given. This is a random part of the collection. Share with any hit: about 0.39%.

Every second line gives: CapD inh | AID504770
- COC(=O)c1nc(-c2ccc(C)cc2)oc1N1CCOCC1
    87 | 0.35
- CCOc1ccc(C(=O)Nc2ccc(S(=O)(=O)Nc3nc(C)cc(C)n3)cc2)cc1
    1.1 | .
- CN(C)c1ccc(C(C2=C(O)CC(C)(C)CC2=O)C2C(=O)CC(C)(C)CC2=O)cc1 (configuration not stated)
    -1.6 | .
- N#Cc1oc2ccccc2c1NC(=O)COC(=O)c1c2c(nc3ccccc13)CCCCC2
    . | -0.4
- CCc1ccc(NC(=O)C(C)OC(=O)c2ccncc2)cc1 (configuration not stated)
    -0.65 | 1.9
- COc1ccc(COC(=O)C2=C(C)NC3=C(C(=O)CC(C)(C)C3)C2c2cc3c(cc2[N+](=O)[O-])OCO3)cc1 (configuration not stated)
    -0.2 | .
- O=C(c1ccc(Cl)cc1)N1CCCn2c1nc1ccccc12
    -0.16 | -0.9
- Cc1nc2ccccc2n1C(C)C(=O)O (configuration not stated)
    . | -0.1
- NNc1ccc(Cl)c(Cl)c1
    0.15 | -3.6*
- COc1cc2c(cc1OC)C(SC)=NC(C)(C)C2
    0.19 | -1
- COc1cccc(CSc2ccc(S(=O)(=O)N3CCOCC3)cc2C(=O)NCC2CCCO2)c1OC (configuration not stated)
    -0.06 | .
- O=C(N/C(=C/c1ccccc1)S(=O)(=O)c1ccccc1)c1ccccc1
    3.7 | -0.15
- Cc1ccc(NC(=O)CCC(=O)O)cc1
    -0.8 | .
- Cc1ccc(C2CC(c3cccs3)=NN2S(=O)(=O)c2ccc(C)cc2)cc1 (configuration not stated)
    0.21 | .
- O=S(=O)(/C=C/c1ccccc1)c1ccc(F)cc1F
    -0.62 | 1.3
- O=C(Nc1ccccc1N1CCCCC1)c1ccc2ncccc2c1
    . | 0
- O=C(CNc1ccccc1-c1ccccc1)NCc1ccccc1
    19 | 0.2
- CCC1=NN(C(=O)c2ccccc2C)C(O)(c2ccc(Br)cc2)C1 (configuration not stated)
    0.33 | .
- Cc1nc2cc(C(=O)c3ccccc3)ccc2[nH]c1=O
    . | 0.35
- Cc1cc(C)c(C)c(S(=O)(=O)N2CCN(C(=O)OC(C)(C)C)CC2)c1C
    -1.2 | .
- Cc1ccc2o/c(=N\O)c(C(N)=O)cc2c1
    -1.4 | -1.6
- O=C(OCc1cc(=O)oc2cc(O)ccc12)c1ccc(C(F)(F)F)cc1
    . | -0.05
- CN(C)/C=C1/C(=O)N(c2ccccc2)N=C1C(F)(F)F
    -0.25 | 0.85
- CC(=O)c1cc2cc(Br)ccc2o1
    -0.095 | .
- COc1cc2c(cc1OC)C(C#N)N(C(=O)c1ccccc1)C=C2 (configuration not stated)
    5.8 | 0.8
- CCN(CC)Cn1c(=S)sc2ccccc21
    . | -1.6
- CCC1CCCCN1C(=O)COC(=O)c1ccc(C#N)cc1 (configuration not stated)
    0.7 | 0.25
- CCSc1nnc(CNC(=O)C23CC4CC(CC(C4)C2)C3)n1CC
    . | 0.3
- Cc1ccc(N2CC(NC(=O)OCCN(C)C)CC2=O)cc1 (configuration not stated)
    . | -0.5
- COc1ccc(CCN2CC(=O)N3CCCC(C4=CC(=O)C=CC4=O)=C3C2=O)cc1OC
    -0.87 | -0.4

Compound profiles (already shown):
O=S(=O)(/C=C/c1ccccc1)c1ccc(F)cc1F across the screens: CapD inh: -0.62; AID504770: 1.3
COc1ccc(COC(=O)C2=C(C)NC3=C(C(=O)CC(C)(C)C3)C2c2cc3c(cc2[N+](=O)[O-])OCO3)cc1 (configuration not stated) across the screens: CapD inh: -0.2; AID504770: .
COc1cc2c(cc1OC)C(C#N)N(C(=O)c1ccccc1)C=C2 (configuration not stated) across the screens: CapD inh: 5.8; AID504770: 0.8

The results go on:
Every second line gives: CapD inh | AID504770
- O=C(Nc1ccccc1)c1scc2c1CCCC2
    -0.19 | -0.75
- Cc1ccc(C(=O)O/N=C\c2ccc(N3CCOCC3)c([N+](=O)[O-])c2)cc1
    -0.23 | .
- CCc1ccc(NC(=O)NC(C)c2c(-n3cccc3)sc3c2CCCC3)cc1 (configuration not stated)
    0.015 | 1.9
- CCCCN(C)C(=O)Cn1c(=O)oc2ccccc21
    -0.46 | 2.7
- COc1cccc(C2C(C(=O)Nc3nc4ccccc4s3)=C(C)NC3=C2C(=O)CCC3)c1OC (configuration not stated)
    6.9 | .
- CCc1c(O)nc(N)[nH]c1=O
    . | -0.65
- COc1ccc(C2=NS(=O)(=O)N(C)C(C(=O)N3CCC(C(N)=O)CC3)=C2)cc1
    0.3 | 2.9
- O=C(Nc1ccc2nc(SCC(=O)N3CCOCC3)sc2c1)c1ccccc1[N+](=O)[O-]
    -0.24 | .
- Oc1ccc(Br)cc1C=Nc1cc(C(F)(F)F)ccc1Cl
    -1.4 | .
- CCCn1c(C(O)(c2c(C)nn(CCO)c2N)C(F)(F)F)nc2ccccc21 (configuration not stated)
    . | 0.45
- O=C(O)CC1(CC(=O)Nc2ccc(Cl)cc2)CCCC1
    62 | -0.65
- Cc1ccccc1-n1nc2c(c1NC(=O)c1ccc(S(=O)(=O)N3CCOCC3)cc1)CS(=O)(=O)C2
    -0.52 | .
- COc1ccccc1C1(CC(=O)O)CCOC(C)(C)C1 (configuration not stated)
    0.57 | 0.9
- CCOC(=O)c1oc2ccc(Br)cc2c1CSc1nc2ccccc2c(=O)[nH]1
    . | -0.4
- O=C(c1ccccc1F)n1c2c(c3ccccc31)CCCC2
    0.015 | 2.1
- N=S(Cc1ccc(Br)cc1)Nc1ccccc1 (configuration not stated)
    1 | -0.1
- NC(=O)C1CCN(Cn2c(SCc3ccccc3)nc3ccccc32)CC1
    . | -2
- COc1ccc(N2C(=O)/C(=C/c3ccc(OC)c(OC)c3)N=C2c2ccc(Cl)cc2)c(OC)c1
    -0.045 | .
- CCOc1ccc2ccccc2c1C=C1C(=O)N(C)C(=S)N(C)C1=O
    1.5 | -0.1
- CCOC(=O)c1sc(-n2[nH]c(C)cc2=O)nc1C
    -1.3 | -0.6
- COc1ccc(/C=C(\C#N)c2nc(-c3ccc(F)cc3)cs2)cc1OC
    -1.1 | .
- Cc1sc2ncn(CC(=O)NCC(=O)O)c(=O)c2c1C
    -0.74 | -0.1
- CCOC(=O)c1cc(C#N)c(SC)nc1-c1ccccc1
    4.1 | -0.1
- O=C(OCCSC1=NS(=O)(=O)c2ccccc21)c1ccccc1
    -0.88 | 0.8
- O=C(O)/C=C1\SC(=O)NC1=O
    -0.32 | -0.4
- CC1(C)CC(=O)C2=C(C1)Nc1ccccc1NC2c1ccc(-c2ccc([N+](=O)[O-])cc2Cl)o1 (configuration not stated)
    -1.8 | .
- CC1CCc2c(sc(NC(=O)c3sc4ccccc4c3Cl)c2C(=O)OC(C)C)C1 (configuration not stated)
    -0.045 | .
- CCOC(=O)c1ccc(-c2ccc(C=C(C#N)C#N)o2)cc1
    . | 1.6
- FC(F)(F)c1cc(NCCC2CCCCN2)cc(C(F)(F)F)c1 (configuration not stated)
    1.9 | .
- O=C(CC1(O)C(=O)Nc2ccc(Br)cc21)c1cccc([N+](=O)[O-])c1 (configuration not stated)
    0.31 | .

Other records follow.
Every second line gives: CapD inh | AID504770
- CCOC(=O)c1cc(C)[nH]c1C
    1.4 | -0.05
- Cc1c(-c2ccnn2C(=O)c2ccc(C(F)(F)F)cc2)sc2ccccc12
    7.2 | -0.25
- COc1cc(OC)nc(CSCC(=O)O)n1
    -0.6 | .
- Cc1nnc2c(NCCN3CCN(c4cccc(Cl)c4)CC3)nc3ccccc3n12
    -0.17 | -0.4
- O=c1cccc2n1CC1CNCC2C1 (configuration not stated)
    0.94 | -0.7
- COc1ccc(-n2nc(C(=O)N3CCN(C)CC3)nc2-c2ccccc2)cc1
    . | -0.7
- c1ccc(OCc2nnc3n2N=C(c2ccccc2)CS3)cc1
    . | -0.3
- CC(=O)NCc1nc2ccccc2n1Cc1ccccc1F
    0.04 | 0.5
- Cc1cc(=O)nc2c3ccccc3n(C(C)C(=O)NC(C)C)n12 (configuration not stated)
    1.8 | 1.1
- O=C(CCSCc1cccc(F)c1)N1CCc2ccccc21
    0.13 | -0.35
- CN(C)c1ncnc2c1cnn2C
    -0.045 | -0.2
- CSc1nc2ccccc2n1CC(=O)Nc1c(C)cccc1C
    . | 0.45
- CC(C)c1ccc2c(c1)c1c3c(cncn32)CCC1
    -0.46 | 0.1
- OC(COC(c1ccc(Cl)cc1)c1ccc(Cl)cc1)CN1CCCC1 (configuration not stated)
    0.025 | 0.05
- Cc1onc(C(=O)NN)c1-c1csc(-c2ccccc2)n1
    0.88 | -0.55
- O=S1(=O)CC/C(=N\Nc2ccc(Cl)cc2Cl)c2ccsc21
    -0.24 | .
- CC(C)Oc1ccc(C(=O)NCC(=O)N2CCN(S(=O)(=O)/C=C/c3ccccc3)CC2)cc1
    . | -0.4
- Cc1sc(-c2ccc(Cl)cc2)nc1CC(=O)NNC(=O)C1=C(n2c(C)ccc2C)CC=C1
    4.1 | .
- CNc1sc(C(=O)c2ccc(OC)c(OC)c2)c(N)c1C#N
    -1.3 | -1.1
- C1CCC(CNCC2CCCO2)CC1 (configuration not stated)
    . | -0.4
- O=C(Nc1nc2ccccc2n1CCOc1ccccc1)c1cccc([N+](=O)[O-])c1
    -0.095 | .
- CCOC(=O)CN(c1ccc(C)cc1)C1SC(=O)N(Cc2cccc(C(=O)O)c2)C1=O (configuration not stated)
    0.55 | -0.2
- CCOC(=O)c1sc2nc(C)cc(C)c2c1N
    95 | .
- COc1cccc(NC(=O)c2cc3ccccc3oc2=O)c1
    -1.1 | 1.5
- COC(=O)c1sc2cc(=O)n(-c3cccc(C(F)(F)F)c3)nc2c1N
    0.45 | .
- CCC(C(=O)NC1CCCC1)N(Cc1ccc2c(c1)OCO2)C(=O)c1snc(C(N)=O)c1N (configuration not stated)
    . | -0.15
- Cc1sc2nc(CN3CCC(C)CC3)[nH]c(=O)c2c1C
    . | 0.05
- CC(=O)N1C(=S)NC(=O)/C1=C/c1cc2ccccc2nc1N1CCCCC1
    -0.38 | .
- C/C=C/c1ccc2c(c1)OCO2
    0.27 | 0.1
- O=C(Cn1c(-c2ccccc2)cc2ccccc21)NC1=NCCS1
    . | 1.9

Next section
Every second line gives: CapD inh | AID504770
- O=C(CN1CCSc2ccccc21)NC1CC1
    . | -0.85
- O=C(N/N=C/c1ccc(Cl)cc1)c1cc(=O)nc2sccn12
    0.01 | 1.9
- CC1CCCCC1N=C1NC(C)(C)CS1 (configuration not stated)
    0.57 | -0.45
- CCCN(Cc1nnc(-c2ccco2)o1)C(=O)/C=C/c1c(C)nn(C)c1C
    . | 1.7
- CSc1ccc(C2C3=C(CC(C)(C)CC3=O)Nc3ccc4ccccc4c32)cc1 (configuration not stated)
    5.5 | .
- COC(=O)C1=CN(Cc2ccc(OC)c(OC)c2)C=C(C(=O)OC)C1c1ccc(OCc2ccccc2)c(OC)c1
    19 | .
- Cc1ccc(-c2nc(CS(=O)(=O)CC(=O)NCC3CCCO3)c(C)o2)cc1 (configuration not stated)
    0.13 | -0.1
- Cc1c2cnn(CC(=O)Nc3ccc4c(c3)OCCO4)c(=O)c2c(C)n1Cc1ccc(F)cc1
    0.84 | 0.65
- NC1(C(=O)O)CCCC1
    0.37 | -0.4
- COc1cc(Br)cc(C=NCc2cccc(C(F)(F)F)c2)c1O
    -0.62 | .
- O=C1c2ccccc2C(=O)N1CCCc1nn2c(-c3cccnc3)nnc2s1
    -0.31 | -0.65
- CCCCC1(CC)NC(=S)N(c2ccc(C)c(C)c2)N1 (configuration not stated)
    -0.16 | 0.35
- CCCN(CCC)C(=O)Cn1c(=O)n(CCCCC(=O)NCc2ccc3c(c2)OCO3)c(=O)c2ccccc21
    -0.06 | -0.6
- Cc1nnsc1-c1onc(C)c1C(N)=O
    9.9 | -0.95
- COc1ccc(CCNC(=O)CN2C(=O)c3cccc4cccc2c34)cc1
    -0.26 | 0.35
- CN(C)c1nc(-c2ccccc2)cc(-c2ccccc2)c1C#N
    7.1 | -0.3
- CC(C)(C)C1CCc2c(sc3nc(-c4ccccc4)cn23)C1 (configuration not stated)
    . | 0.3
- CN(C)c1ccc(C2Nc3ccccc3C(c3ccccc3)(c3ccccc3)O2)cc1 (configuration not stated)
    -0.33 | .
- O=C(O)CNS(=O)(=O)c1ccccc1
    2.5 | -0.1
- CCSc1nnc(NC(=O)c2oc3ccccc3c2COC)s1
    . | 0.15
- Cc1ccc(C)c(OC(=O)c2cccnc2Cl)c1C
    -0.39 | -0.5
- N#CCn1c(COC(=O)c2ccc3c(c2)OCO3)nc2ccccc2c1=O
    . | -0.45
- CC1CC(=O)Nc2ccccc2N1C(=O)CN1CCCCC1 (configuration not stated)
    -0.33 | -1.1
- O=c1ccn(Cc2ccccc2)c(=O)n1Cc1ccccc1
    -0.27 | 1.8
- O=C(c1ccc(=O)[nH]n1)N1CCN(S(=O)(=O)c2ccc(Br)s2)CC1
    . | -0.05
- O=C(O)CS(=O)(=O)Cc1ccccc1
    . | 1.6
- COC(=O)c1ccc(NC(=O)COc2cccc3ccccc23)cc1
    0.53 | -0.15
- Nc1nc(N)nc(-c2ccc(Cl)cc2)n1
    0.24 | .
- Cc1c(C(=O)c2ccncc2)c2ccccn2c1CCC#N
    . | -0.5
- O=C(NC1CCCC1)c1[nH]nc2c1CCc1ccccc1-2
    1.4 | -0.1

Three entries from above, with each value named.
> COC(=O)c1nc(-c2ccc(C)cc2)oc1N1CCOCC1
  CapD inh: 87; AID504770: 0.35

> COc1ccc(-n2nc(C(=O)N3CCN(C)CC3)nc2-c2ccccc2)cc1
  CapD inh: .; AID504770: -0.7

> Cc1ccc(NC(=O)CCC(=O)O)cc1
  CapD inh: -0.8; AID504770: .

Remaining list, next part.
Every second line gives: CapD inh | AID504770
- CN1CCN(c2cc(Cl)c(C#N)cc2F)CC1
    . | 0.1
- O=C(OCC(=O)c1c[nH]c2ccccc12)C1=COCCO1
    . | -0.55
- COc1ccc(C2C(C(=O)N3CCCC3)CC(=O)N2c2ccc(OC)cc2)cc1 (configuration not stated)
    -0.055 | 0.1
- COc1cc(OC)nc(C(=O)N2CCc3ccccc3C2)n1
    -0.37 | .

Source: PubChem BioAssay
